ClpP mod: qHTS Assay for Activators of ClpP; ATP-dependent Clp protease proteolytic subunit (Bacillus subtilis (strain 168)), P80244; Potency, µM (titrated, usually from 57.5 µM), for inactives: at the highest dose activity change, negative = active; purified B. subtilis ClpP, FRET peptide cleavage, 20 min; hit rate 1.9% among 340,000; AID 651965, 2013; active = well fitted falling curve with a large enough effect; inconclusive = small, poorly fitted or top-dose-only effect; inactive = no such curve, though single readings can be large or run the other way; further: potency means the concentration at half of the fitted maximal effect; the source files actives as falling curves though it sought activators and does not explain the sign; nearly all actives have a fitted effect of over 65% in size; many hits overshoot -100%
Target sequence (P80244 whole entry, looked up): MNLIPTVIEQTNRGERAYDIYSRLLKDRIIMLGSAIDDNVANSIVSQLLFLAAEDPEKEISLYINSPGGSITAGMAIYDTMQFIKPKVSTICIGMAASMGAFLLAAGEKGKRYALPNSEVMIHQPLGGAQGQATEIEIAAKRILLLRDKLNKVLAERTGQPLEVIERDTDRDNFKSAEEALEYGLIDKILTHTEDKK
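Buffer: 100 mM Tris/HCl pH8, 100 mM KCl, 0.05% low protease BSA, 2.5% glycerol, 0.01% Tween-20. ClpP 10 microg/mL final; 20 min RT; delta FRET normalized to ADEP and DMSO controls.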
TRPML1 agonist: agonists of human TRPML1 channel; TRPML1-expressing cells, Ca2+ dye fluorescence, FDSS; host cell line not named in the record; reference of the full effect not given here; activation, % (test concentration not listed); hit rate 0.12% among 410,000; AID 624414; in the data active = activation above about 50%; inconclusive = about 30% to 50%; inactive = below about 30%; further: 0% is about no effect; the text of the record puts the active cut at 80%
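Kinetic FDSS Ca2+ read in Tet-induced TRPML1-DL cells (ABD Ca8 dye plus quencher, 45-90 min RT loading): baseline, then compound, then 110 s agonist window; EC80 agonist 54-4 at 4uM final added afterwards for a 110 s antagonist window.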
Sfp inh: blocks B. subtilis Sfp PPTase activity; Q9F4F7; Biochemical Sfp PPTase activity, qHTS; Potency, µM, inactives show max response, negative = inhibition, usual class: inhibitors; hit rate 3.5% among 310,000; AID 1490; active means well fitted inhibition curve with a large enough effect; inconclusive means small, poorly fitted or top-dose-only effect, or another doubt; inactive means no such curve, though single readings can be large or run the other way;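 further: the enzyme is Sfp with the accession as filed and its product quenches rhodamine fluorescence; potency means the concentration at half of the fitted maximal effect; 0% = enzyme reaction without inhibitor and -100% = no enzyme wells; top concentration of the series not given in the record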
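Buffer: 50 mM Hepes-Na pH 7.6, 10 mM MgCl2, 0.01% Nonidet P-40, 0.01% BSA. Enzyme 15 nM, pre-exposed to compound 15 min; substrates then added and fluorescence change tracked over 30 min.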
TRPML1 inh: human mucolipin-1 channel inhibition | Q9GZU1 | TRPML1-inducible cells, Ca2+ dye fluorescence, FDSS; active compounds read low; inhibition of EC80 agonist-evoked calcium signal | activity change, negative = inhibition, % (test concentration not listed) | hit rate 0.02% among 390,000 | AID 624415; in the data active means activity change below about -50%; inconclusive means about -30% to -50%; inactive means above about -30%;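 further: stimulus is agonist 54-4 at its EC80 concentration; on the % scale 0 is the no-effect control and ±100 the full control effect; compound concentration not given in the record; the text of the record puts the active cut at -80%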
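Tet-induced TRPML1-DL cells loaded with Ca8 no-wash calcium dye were read kinetically on FDSS. Compound addition was followed by EC80 agonist 54-4 (4 uM final); inhibition was read over 110 s.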
TRPV1 potentiator: human TRPV1 potentiation. hit rate 0.02% among 320,000. potentiation, % at 8.33 µM. AID 540277. Q8NER1. TRPV1-expressing cells, Fluo-8 calcium influx, capsaicin EC20 potentiation; host cell line not named in the record; control for the full effect not named in the record; active means potentiation above 80%; inconclusive means 30% to 80%; inactive means below 30%; further: 0% is about no effect
Target sequence (Q8NER1 whole entry, looked up): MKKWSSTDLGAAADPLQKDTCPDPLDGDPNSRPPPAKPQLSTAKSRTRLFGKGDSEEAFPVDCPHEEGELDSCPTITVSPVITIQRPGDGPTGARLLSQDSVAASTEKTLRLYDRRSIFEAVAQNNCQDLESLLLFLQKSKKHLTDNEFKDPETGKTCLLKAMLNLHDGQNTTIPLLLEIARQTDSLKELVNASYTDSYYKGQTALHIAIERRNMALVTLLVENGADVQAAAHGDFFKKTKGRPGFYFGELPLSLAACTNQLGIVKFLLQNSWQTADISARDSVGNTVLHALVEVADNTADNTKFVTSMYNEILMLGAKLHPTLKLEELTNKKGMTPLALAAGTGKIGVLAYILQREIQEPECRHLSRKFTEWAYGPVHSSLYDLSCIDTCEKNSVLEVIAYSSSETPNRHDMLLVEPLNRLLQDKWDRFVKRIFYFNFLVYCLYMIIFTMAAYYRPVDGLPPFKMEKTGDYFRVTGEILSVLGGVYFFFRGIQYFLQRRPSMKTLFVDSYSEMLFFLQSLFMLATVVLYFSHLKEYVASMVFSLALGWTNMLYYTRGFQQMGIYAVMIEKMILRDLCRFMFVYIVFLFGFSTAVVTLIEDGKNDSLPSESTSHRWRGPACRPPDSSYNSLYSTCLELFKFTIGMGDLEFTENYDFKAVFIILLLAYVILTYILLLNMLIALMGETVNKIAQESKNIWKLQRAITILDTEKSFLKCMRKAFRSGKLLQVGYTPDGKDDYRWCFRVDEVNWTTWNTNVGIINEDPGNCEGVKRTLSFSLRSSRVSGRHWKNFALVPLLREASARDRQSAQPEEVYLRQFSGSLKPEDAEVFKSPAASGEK
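Cells expressing TRPV1 were dye-loaded with Fluo-8 and read kinetically: 10 s baseline, 3 min after compound (agonist portion), then 2 min after EC20 capsaicin (allosteric enhancer portion). Calcium-bound dye fluorescence at 480/520 nm.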
Menin-MLL FL inh: menin-MLL binding inhibition, fluorescein peptide. Fluorescence polarization, fluorescein-MLL peptide displacement from menin. FP activity change, % at 61.4 µM. 290,000 tested, under 10 active. AID 1766; inconclusive = falling polarisation curve, or a change in total fluorescence; inactive = total fluorescence flat and polarisation flat or rising; no compound was filed as active; the % refers to the polarisation; negative = inhibition;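 further: % of control where 0% means no effect; inhibitors lower the polarisation; unlabelled MLL peptide was the positive control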
PINK1 modulator: modulators of PINK1 expression | PINK1 immunofluorescence, high-content cytometry, 24 h | Potency, µM (top dose mostly 76.6 µM), inactives show top-dose activation (PINK1 increase), usual class: activators | hit rate 0.2% among 410,000 | AID 624263; active = well fitted activation curve with a large enough effect; inconclusive = small, poorly fitted or top-dose-only effect; inactive = flat fitted curve, though single readings scatter; cell line not stated here;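 further: potency means the concentration at half of the fitted maximal effect; % of control where 0% means no effect; nearly all actives have a fitted effect of over 65% in size; a mitochondrial uncoupler was the plate control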
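Measures PINK1 amount and localization on or inside mitochondria by immunofluorescence. Stable cells get compounds at 5 concentrations for 24 hours before fixation and staining; CCCP controls included.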
An asterisk follows results filed as active; ? = inconclusive; · = not tested or not shown; [ ] = remark or other dose.

SMILES	ClpP mod	TRPML1 agonist	Sfp inh	TRPML1 inh	TRPV1 potentiator	Menin-MLL FL inh	PINK1 modulator
Cc1ccc(S(=O)(=O)N2CCCCC2)cc1NC(=O)CCc1nc2ccccc2c(=O)[nH]1	-0.2%	2.4	·	-5	3	·	-1.0%
COc1ccc(C(=O)/C=C/c2ccc(OC3CSC3)cc2)cc1OC	-0.5%	-0.4	?	-9	3	2.6	-4.3%
O=C(NCC1CCCO1)c1ccccc1-c1nc(-c2ccc(F)cc2)no1 (centres undefined)	-4.3%	-0.7	17%	-7	1	-1.4	2.1%
CCOC(=O)[C@H]1[C@H]2COc3ccc(Br)cc3[C@@H]2N2C(=O)[C@H](C)NC(=O)[C@@]12C	-2.5%	0.0	·	12	·	·	0.5%
CCOC(=O)c1c(COC(=O)c2ccco2)nc2ccccc2[n+]1[O-]	0.7%	-0.5	0%	-8	?	7.7	-1.4%
CCCCCC(=O)N1C[C@@H](n2cc(-c3ccc(F)cc3)nn2)[C@H](O)C[C@@H]1c1ccc(C)cc1	0.2%	1.3	·	7	·	·	?
Cc1ccc(N2C(=O)C3ON(c4ccccc4)C(CC(C)C)C3C2=O)cc1 (centres undefined)	0.6%	1.7	21%	?	9	-1.3	0.1%
CCc1noc(C)c1C(=O)Nc1cc(C(F)(F)F)ccc1-n1cncn1	0.7%	0.0	·	-7	-22	·	1.8%
Cc1ccc(C(=O)Nc2ccc(Nc3ccccc3)cc2)c(Cl)c1	-0.9%	1.6	4%	21	2	4.8	5.9%
CC1(C)C(=O)Nc2ccccc2N1C(=O)COC(=O)CNS(=O)(=O)c1ccc(Br)cc1Cl	1.6%	-0.7	·	11	·	·	3.9%
CN(CC(=O)Nc1ccccc1)CC(=O)Nc1ccc(F)cc1	·	-0.7	8%	2	16	-7.6	1.2%
NC(=O)C1CCN(C(=O)CNC(=O)c2ccc(Br)o2)CC1	-2.4%	2.3	·	43	-3	·	3.1%
O=C1C=C(Nc2ccccc2O)c2ccccc2C1=O	3.9%	3.2	?	-2	3	4.0	-3.4%
N#CCSc1nc(-c2ccccc2)nc2ccccc12	·	1.2	14%	16	-26	-1.1	4.0%
CN(C)CCNc1c2c(nc3nnnn13)CCCC2	·	-0.2	10%	11	14	-0.9	-0.2%
O=C(CCc1nnc(CCc2ccccc2)o1)NC(c1cccnc1)C(F)(F)F (centres undefined)	-2.0%	·	7%	·	-2	0.4	2.9%
COCCNC(=O)C1(C)Cc2c(-c3ccc4c(c3)OCO4)ccnc2O1 (centres undefined)	5.3%	-0.7	·	·	·	·	4.6%
Cc1ccc(N(Cc2cc3ccccc3[nH]c2=O)C(=O)c2cccc(Cl)c2)cc1	-29%	0.1	·	0	·	·	0.5%
CCn1c(=O)c2ccccc2n(Cc2cccc([N+](=O)[O-])c2)c1=O	·	2.5	11%	26	25	13	15%
CC1CCc2c(sc(/N=C/c3ccco3)c2C(N)=O)C1 (centres undefined)	·	1.3	-23%	1	5	5.1	21%
O=C1C(=O)N2C(=C1C(=O)N1CCCCCC1)c1ccccc1CC21CCCC1	-1.0%	0.3	14%	-9	-18	1.2	0.3%
Brc1ccc(OCCn2ccnc2)cc1	0.2%	0.5	5%	-11	6	0.0	·
CCOc1ccccc1NC(=O)c1nn(-c2ccc(OC)cc2)c(=O)c2c1c1ccccc1n2C	-5.8%	1.9	·	7	·	·	1.4%
N#Cc1ncccc1CCc1cccc(Cl)c1	·	3.6	·	-19	·	·	2.2%
Cc1[nH][nH]c(=O)c1C(c1ccc(-c2cccc(Cl)c2)o1)c1c(C)[nH][nH]c1=O	·	-0.1	45µM*	0	-4	3.4	0.6%
C/C=C/C=C/C(=O)Nc1cccc(C2=NOC3(C2)C[C@H](C(N)=O)N(C(=O)CC(c2ccccc2)c2ccccc2)C3)c1 (some centres undefined)	·	·	40µM*	·	13	15	·
Cc1cc(/C=C(/C#N)C(=O)Nc2ccccc2)c(C)n1-c1cccnc1	12%	0.0	-10%	-3	-6	1.9	-1.4%
CCCCC12CN3CC(C)(CN(C1)C3c1ccc(OCc3ccccc3)cc1)C2=O (centres undefined)	1.0%	-0.4	·	22	·	·	0.6%
CC(OC(=O)CCN1C(=O)C2CC=CCC2C1=O)C(=O)c1ccc(F)cc1 (centres undefined)	-1.1%	1.5	·	1	6	·	0.0%
CCOc1ccc(C(=O)NCCc2ccccc2)cc1	-1.4%	0.1	19%	43	9	1.1	2.6%[38.3 µM]
CCOC(=O)c1[nH]c(C)c(C(=O)OCC(=O)N(C)C2CCS(=O)(=O)C2)c1C (centres undefined)	·	0.0	8%	-6	3	2.4	0.1%
CCOc1ccc(NC(=O)c2ccccc2CO)cc1	0.2%	-0.5	3%	-1	-6	3.5	0.3%
O=C(CCS(=O)(=O)c1ccc(F)cc1)Nc1nc(-c2ccncc2)cs1	-0.1%	0.3	13µM*	2	11	·	2.3%
COc1cccc(-c2nc(CS(=O)(=O)CC(=O)Nc3cc(C)ccc3C)c(C)o2)c1	-5.7%	-0.2	24%	7	15	3.5	12%
CCCN(CC(=O)Nc1ccc(F)c(F)c1F)C(=O)Cc1ccc(OC)c(S(=O)(=O)N2CCOCC2)c1	-0.5%	-0.2	·	-12	·	·	2.2%
CC1=NC(=O)C(N=Nc2cccc(C(=O)O)c2)N1c1ccccc1 (centres undefined)	-4.1%	-0.3	-4%	14	11	2.8	-1.5%[38.3 µM]
O=C(/C=C/c1cccc(Cl)c1)Nn1c(-c2cccs2)nc2ccccc2c1=O	·	1.9	1%	-16	0	1.1	2.1%
COc1ccc(S(=O)(=O)N(C)C)cc1NC(=O)c1ccc(OCC(=O)N2CCOCC2)c(OC)c1	-0.8%	0.3	·	-12	12	·	2.5%
Cc1ncsc1CCOC(=O)c1ccc(Cl)cc1	·	1.0	-25%	35	-18	-1.2	4.6%
CCNc1nc(NCC)n2c(SCC(=O)Nc3ccc(OC)c(OC)c3)nnc2n1	46%	-0.3	·	6	21	·	-2.1%
CCC(=O)N1CCCC(C)(C(=O)Nc2nccc3cccnc23)C1 (centres undefined)	0.6%	-0.1	·	·	·	·	-1.0%
COc1ccc2c(c1OC)C(=O)N(c1ncn[nH]1)C2	28µM*	0.3	-11%	6	4	-0.4	1.7%
S=C(NCCCc1cnc[nH]1)NCCCN(Cc1ccc(Cl)c(Cl)c1)c1ccc(Br)cn1	·	·	?	·	·	-5.9	-0.4%
O=c1[nH]nc(Cc2ccc(Cl)cc2)c2ccccc12	0.4%	0.0	0%	-1	?	3.8	1.4%
O=C1Nc2cc3c(cc2Sc2ccccc21)OCCO3	-0.9%	-0.4	-1%	-3	-1	4.3	-2.5%
CCC1(CC)NC(=O)N(CC(=O)OC(C)C(=O)Nc2ccccc2OC)C1=O (centres undefined)	-2.1%	0.2	·	1	17	·	2.0%
Cc1ccc(CC2(C)C(=O)Nc3c(Cl)cccc32)cc1 (centres undefined)	-0.9%	0.4	·	-10	·	·	3.5%
Cc1ccccc1-n1c(=O)cc(NCC2CCCO2)[nH]c1=O (centres undefined)	-2.2%	1.2	-1%	-8	4	0.4	·
NC(=O)C1CCN(C(=O)COc2ccc(S(=O)(=O)NCc3ccccc3)cc2Cl)CC1	-1.0%	-0.9	4%	-18	15	4.7	0.0%
Cc1c(OC(=O)CNC(=O)OC(C)(C)C)ccc2c3c(c(=O)oc12)CCC3	594%	0.5	-7%	3	-1	-0.6	-5.1%[38.3 µM]

Next results follow:
SMILES	ClpP mod	TRPML1 agonist	Sfp inh	TRPML1 inh	TRPV1 potentiator	Menin-MLL FL inh	PINK1 modulator
CCOc1ccc(NC(=O)c2cc(S(=O)(=O)NC3CCCC3)ccc2F)cc1	0.5%	2.5	·	-14	·	·	0.2%
O=C(Nc1ccc(Cl)c(Cl)c1)Nn1cnnc1	·	-0.8	10%	-6	7	0.9	0.2%
Cc1cccc(NC2=C(Cl)C(=O)OC2OC(C)C)c1 (centres undefined)	-0.7%	0.3	12%	22	3	0.1	0.2%
COc1cccc(-c2nc(NC(C)(C)C)c3ccccc3n2)c1O	1.2%	0.0	?	7	2	0.4	?
Cc1ccc(-c2cc(C(=O)Nc3ccc(S(=O)(=O)Nc4ncccn4)cc3)c3ccccc3n2)cc1	-6.6%	2.1	0%	47	-1	-1.4	1.9%
O=C(Nc1cccc(C(=O)OCc2cc(=O)n3c4c(sc3n2)CCCC4)c1)c1ccc(Cl)cc1	?	1.2	·	-5	·	·	-2.0%
CC(C)C(Nc1ccc(S(=O)(=O)N2CCOCC2)cc1[N+](=O)[O-])C(=O)O (centres undefined)	·	-0.3	19%	-1	6	0.0	-0.1%
CCn1cc(C(=O)NC2CC(C)(C)Cc3c2cnn3-c2cccc(F)c2)cn1 (centres undefined)	1.9%	1.4	13%	28	-8	·	11%
CC(Nc1ccccc1N1CCCCC1)C(=O)N1CCc2ccccc21 (centres undefined)	-2.0%	-0.2	2%	7	-13	-2.5	0.3%
Cc1ccc(-c2csc(NCCn3c(-c4ccncc4)nc4ccccc43)n2)cc1	3.4%	1.3	-9%	13	3	-0.4	3.8%
CC(C)(C)c1ccc(C(=O)Nc2cc(-c3ccccc3)nn2-c2ccccc2)cc1	?	0.1	·	-7	·	·	1.6%
COCCCNC(=O)c1oc2c(c1C)-c1nn(Cc3ccccc3Cl)cc1CC2	?	2.2	·	-2	·	·	2.0%
CC(C)OC(=O)C(C)Oc1ccc(C(=O)NCCc2ccccc2)cc1 (centres undefined)	2.0%	1.7	11%	1	-23	4.6	-1.9%
COc1ccc(C(=O)Nc2ccccc2C(=O)N/N=C/c2ccc(O)c(OC)c2)cc1	-6.0%	0.0	18%	-4	6	-0.7	7.5%
CC(=O)Oc1ccc(Cn2c(C)c(C(=O)NCCC#N)sc2=O)cc1	0.4%	-0.9	·	·	·	·	0.0%

Part of the list above in order of SMILES length, descending:
SMILES	ClpP mod	TRPML1 agonist	Sfp inh	TRPML1 inh	TRPV1 potentiator	Menin-MLL FL inh	PINK1 modulator
CCCN(CC(=O)Nc1ccc(F)c(F)c1F)C(=O)Cc1ccc(OC)c(S(=O)(=O)N2CCOCC2)c1	-0.5%	-0.2	·	-12	·	·	2.2%
CCn1cc(C(=O)NC2CC(C)(C)Cc3c2cnn3-c2cccc(F)c2)cn1 (centres undefined)	1.9%	1.4	13%	28	-8	·	11%
CCNc1nc(NCC)n2c(SCC(=O)Nc3ccc(OC)c(OC)c3)nnc2n1	46%	-0.3	·	6	21	·	-2.1%

Bioassay records (PubChem BioAssay)
